# Assay outcomes (PubChem BioAssay)
# miR-21 FLuc = miR-21 reporter, rising signal | HeLa miR-21 FLuc reporter, luciferase, 48 h | Potency, µM (titrated, usually from 38.3 µM), for the others: at the top dose reporter change, positive = more light | 340,000 tested, under 10 active | AID 2288; active = well fitted rising curve with a large enough effect; inconclusive = small, poorly fitted or top-dose-only effect; inactive = no such curve, though single readings can be large or run the other way;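 also: % of control where 0% means no effect; miR-21 action dims this reporter so a rising signal means less miR-21 action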
#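 HeLa cells stably expressing CMV-driven firefly luciferase with a downstream miR-21 binding sequence, endogenously expressing miR-21, were treated with titrations (up to about 40uM final) for 48 hours at 37 degree Celsius. Luciferase luminescence was read after lysis.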
# Rango dissoc inh = prevents RanGTP from dissociating the Rango-importin beta complex | hit rate 0.071% among 340,000 | O95149+P62826 | Potency, µM (series often up to 46.1 µM), for inactives: at the top dose activity change, negative = inhibition | Biochemical FRET Rango-importin beta, RanGTP-induced dissociation; active means falling FRET ratio curve, often poorly fitted, with flat reads before Ran was added; inconclusive means other falling curves, or compound fluorescence or quenching; inactive means flat or rising ratio curve;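 also: potency is read from the fitted curve at half-maximal effect; % of control where 0% means no effect; nearly all actives have a fitted effect of over 45% in size; -100% = wells without RanGTP and RCC1; the record marks most hits as doubtful in a second field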
#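 Rango/importin beta premix (0.1/0.25 uM final), PBS + 1 mM DTT + 0.02% Tween-20 + 0.1% BSA; cpd 5 min RT; FRET pre-read; + RanGTP-RCC1 (0.6 uM Ran, 2 mM GTP, 0.2 uM RCC1); 45 min RT; FRET post-read, ex 430, em 486/530 nm.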
# Rango complex inh = inhibitors of Rango-importin beta complex formation; Potency, µM (titrated, usually from 92.2 µM), inactives show top-dose inhibition of complex formation; AID 540263; Q14974; Rango CFP/YFP FRET sensor + importin beta, 45 min; hit rate 0.031% among 340,000; active = rising FRET ratio curve, often small or poorly fitted; inconclusive = mostly compound fluorescence or quenching in the first reads; inactive = flat curves in all reads;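 also: potency is read from the fitted curve at half-maximal effect; 0% = DMSO wells and 100% = buffer wells lacking importin beta; nearly all actives have a fitted effect of over 15% in size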
# Target sequence (Q14974 whole entry, looked up): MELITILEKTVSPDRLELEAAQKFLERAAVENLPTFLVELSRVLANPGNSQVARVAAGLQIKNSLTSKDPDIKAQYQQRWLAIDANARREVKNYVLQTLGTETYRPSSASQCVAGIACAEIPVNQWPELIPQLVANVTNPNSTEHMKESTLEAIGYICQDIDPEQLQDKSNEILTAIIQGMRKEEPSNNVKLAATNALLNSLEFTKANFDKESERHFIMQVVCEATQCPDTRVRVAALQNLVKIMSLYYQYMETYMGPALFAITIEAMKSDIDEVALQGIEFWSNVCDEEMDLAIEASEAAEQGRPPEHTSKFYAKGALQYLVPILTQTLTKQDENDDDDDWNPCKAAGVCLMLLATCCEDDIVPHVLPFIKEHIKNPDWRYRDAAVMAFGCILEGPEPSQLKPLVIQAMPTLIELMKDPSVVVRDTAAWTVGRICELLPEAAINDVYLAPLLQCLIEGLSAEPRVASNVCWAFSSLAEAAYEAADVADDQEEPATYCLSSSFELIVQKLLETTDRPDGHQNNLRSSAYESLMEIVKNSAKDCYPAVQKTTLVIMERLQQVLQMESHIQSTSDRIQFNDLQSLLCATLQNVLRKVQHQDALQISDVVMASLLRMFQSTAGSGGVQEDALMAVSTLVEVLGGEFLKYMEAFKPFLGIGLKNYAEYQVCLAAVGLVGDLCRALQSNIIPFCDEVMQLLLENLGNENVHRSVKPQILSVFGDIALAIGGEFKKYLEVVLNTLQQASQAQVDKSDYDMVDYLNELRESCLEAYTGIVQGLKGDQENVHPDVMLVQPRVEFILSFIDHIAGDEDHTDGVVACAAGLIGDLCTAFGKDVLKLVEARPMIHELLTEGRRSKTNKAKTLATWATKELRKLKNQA
#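 Inhibition scored from the CFP 486 nm/YFP 530 nm FRET ratio 45 min after adding 0.125 microM importin beta to 50 nM Rango biosensor preincubated 5 min with compound (room temperature, PBS with DTT, Tween-20, BSA). No-importin wells as positive control.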
# GLA inh pH 4.5 = alpha-galactosidase A (human) inhibition, pH 4.5; purified enzyme, 4-MU-alpha-Gal fluorescence, pH 4.5; 230,000 tested, under 10 active; AID 1467; P06280; activity change, negative = inhibition, % at 105 µM; inconclusive = small, poorly fitted or top-dose-only inhibition, or a rising curve; inactive = flat fitted curve, though single readings scatter; no compound was filed as active;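 also: 0% = full activity with enzyme and -100% = basal without enzyme; dose as in the result columns while the protocol names 77 µM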
# * marks the source's active call; other numbers are inactive results; u = inconclusive; x = not tested or not shown; [ ] = dose if it differs, or a comment. An excerpt; the hit share may differ from the screen's.
Molecule	miR-21 FLuc	Rango dissoc inh	Rango complex inh	GLA inh pH 4.5
CC1(C)Cc2c(sc3nc4n(c(=O)c23)CCC4)CO1	-0.7%	-23.3%	9.0%	-0.4
C=CCOc1ccc(CNCCO)cc1OCC	-5.4%	-3.9%	-4.7%	-4.1
CCC(C)NC(=O)CSc1nnc(-c2cc(-c3ccc(C)cc3)nc3ccccc23)n1N (centres undefined)	-3.2%	-5.2%	-0.1%	9.1
CCc1cc2cc(C)ccc2nc1SCC(=O)N1CCN(C(=O)c2ccco2)CC1	-0.5%	3.8%	3.0%	-3.9
Cc1c(C(=O)NC2=NCCS2)cccc1[N+](=O)[O-]	-0.2%	0.4%	4.8%	x
CCOC(=O)C1(C)/C(=N/Nc2ccc(S(N)(=O)=O)cc2)C(=O)C(=O)N1c1ccccc1 (centres undefined)	0.3%	16.4%	u	-6.0[21.1 µM]
COc1ccc(CCNC(=O)c2noc(C(C)C)c2[N+](=O)[O-])cc1OC	-6.0%	-6.7%	-1.0%	x
CCN1CCN(S(=O)(=O)c2ccc(Cl)c(C(=O)N(C)Cc3cccc(Cl)c3Cl)c2)CC1	x	-26.7%	-4.2%	x
O=C(COc1ccc2c(c1)CCC2)N1CCN(c2cccc(C(F)(F)F)c2)CC1	-8.7%	-1.5%	-0.7%	-12.9
O=C(Cc1c(Cl)cccc1Cl)OCC(=O)N1CCOCC1	x	-3.3%	-1.1%	x
CN=CC1=C(O)CC(C)(C)CC1=O	-2.6%	0.6%	-2.0%	5.8
CCCCN(C(=O)CSCc1c(C)noc1C)c1c(N)n(CCCC)c(=O)[nH]c1=O	x	-9.5%	-5.3%	x
CCc1ccc(NC(=O)C2CCN(C(=O)N3CCOc4ccccc43)CC2)cc1	14.7%	19.5%	-2.4%	x
Cc1ccc(N2C(=O)[C@@H]3[C@H](C2=O)C2CCCN2[C@@H]3C(=O)c2ccccc2)cc1 (some centres undefined)	-18.6%	u	u	-2.7
CC(C)Oc1ccc(CCC(=O)N/N=C/c2ccc3c(c2)OCO3)cc1	-2.0%	0.6%	3.9%	x
COc1cc(NC(=O)c2c3c(nc4ccccc24)CCC3)cc(OC)c1	-0.6%	-6.2%	-1.6%	-0.7
COc1ccc(C2C(C(=O)c3sc(C)nc3C)=C(O)C(=O)N2CCCn2ccnc2)cc1OC (centres undefined)	-2.2%	-20.0%	-1.8%	u
O=C(Nc1nc2c(Cl)ccc(Cl)c2s1)C1CC1	3.8%	19.9%	-0.1%	x
CCOc1ccc2[nH]c(C)c(CN3CCN(C)CC3)c(=O)c2c1	-3.7%	4.2%	-3.3%	10.4
Cc1ccc(/C=C/C(=O)OCc2nc(N)nc(Nc3ccccc3C)n2)o1	-7.3%	-6.9%	-3.4%	1.7
CC(C)(C)C(=O)NC1CCN(C(=O)N2CCCC2)CC1	-5.5%	26.6%	0.0%	2.9
COc1ccc(C(=O)CN2CCN(S(=O)(=O)c3cccc([N+](=O)[O-])c3)CC2)cc1	-3.1%	-1.3%	-0.9%	0.3
CC(Cl)C(=O)NNc1cccc(Cl)n1 (centres undefined)	-7.5%	-9.7%	6.7%	-9.6
CC(NC(=O)c1sc2cc([N+](=O)[O-])ccc2c1Cl)C(C)(C)C (centres undefined)	-7.2%	-3.7%	-2.0%	-2.6
O=C(COc1ccc(S(=O)(=O)N2CCCC2)cc1)NCc1ccccn1	-1.4%	2.8%	-0.1%	x
CCN(CC(=O)Nc1c(F)cccc1F)C(=O)CSc1nc(C)cc(C)n1	-2.8%	5.3%	0.2%	x
Cc1noc(C)c1S(=O)(=O)N1CCC(C(N)=O)CC1	1.1%	11.8%	2.4%	x
Cc1ccc(NC(=O)COC(=O)CC2CC3CCC2C3)cc1S(=O)(=O)N1CCOCC1 (centres undefined)	x	4.9%	-3.0%	x
O=C(NC1=NCCS1)c1cccc(Br)c1	x	0.6%	-0.9%	x
O=C(NCc1ccco1)C(=O)NCC1OCCN1S(=O)(=O)c1cc(F)ccc1F (centres undefined)	5.1%	-1.1%	-3.3%	1.8

# Profiles as entered above. Screens in order: miR-21 FLuc	Rango dissoc inh	Rango complex inh	GLA inh pH 4.5
# `CCN(CC(=O)Nc1c(F)cccc1F)C(=O)CSc1nc(C)cc(C)n1` is listed as -2.8%	5.3%	0.2%	x
# `Cc1noc(C)c1S(=O)(=O)N1CCC(C(N)=O)CC1` is listed as 1.1%	11.8%	2.4%	x

# Next section:
Molecule	miR-21 FLuc	Rango dissoc inh	Rango complex inh	GLA inh pH 4.5
CC(C)[C@H](NC(=O)OCc1ccccc1)C(=O)OCC(=O)N1CCN(c2ccc(F)cc2)CC1	x	0.3%	6.0%	x
COc1cc(NC(=O)C2Cc3ccccc3CN2S(C)(=O)=O)cc(OC)c1 (centres undefined)	-12.9%	-16.5%	-3.2%	x
O=C(Nc1cccc(NC(=O)C2CCCO2)c1)c1ccco1 (centres undefined)	-3.3%	0.6%	-4.0%	-15.5
COC(=O)c1cc(COc2ccc3c(c2)oc(=O)c2ccccc23)c(C)o1	-5.8%	0.6%	0.0%	-5.5
CCN(CC(=O)NCc1cccs1)S(=O)(=O)c1c(F)cccc1F	x	4.8%	-4.5%	x
COc1cc(C(=O)OCC(=O)Nc2ccc(N3CCOCC3)cc2)ccc1OCC(C)C	x	-5.2%	-0.4%	x
C[C@H]1CC[C@]2(O[C@H](CCO)C[C@H](O)[C@H]2O)O1	x	29.2%	-2.7%	x
O=C(CSc1cccc2cccnc12)NCc1ccco1	-5.3%	25.1%	4.2%	-4.6
O=C(COc1ccccc1Cl)NC(=S)Nc1cccc(NC(=O)c2ccccc2Cl)c1	-5.9%	-6.4%	0.1%	-5.3
CCOCCn1c(-c2ccc(OC)cc2)nc2ccccc21	-30.4%	u	-1.8%	-10.1
CC(C)Nc1nc(Cl)nc(Nc2ccccc2)n1	-31.7%	-9.6%	0.6%	x
Cc1ccc(C(=O)NCC(=O)Nc2ccncc2)cc1C	1.6%	6.4%	-0.3%	x
CCCCCn1c(=O)[nH]c2c(c1=O)CCC2	-10.2%	13.1%	-5.2%	-2.8
CCO/N=C(/C)c1c(O)cc(C(C)(C)C)n(-c2ccccc2)c1=O	-1.3%	1.1%	-0.2%	-1.8
CCOc1ccc(N2C(=O)CC(Sc3nnnn3-c3ccccc3)C2=O)cc1 (centres undefined)	u	-6.6%	-0.7%	-1.4
COc1ccc(OCC(=O)N/N=C/c2ccc(OC)c(OC)c2C(=O)O)cc1	-5.6%	0.1%	-0.5%	-8.0
Cc1ccc(/C=N/NC(=O)c2cc(-c3ccc(C)o3)[nH]n2)cc1	18.1%	3.1%	2.9%	x
Cc1[nH]nc2c1C1(CCC3(CC1)OCCO3)C(C#N)=C(N)O2	-0.3%	-7.1%	-1.0%	-13.4
Cc1ccc(S(=O)(=O)NNC(=O)c2cc([N+](=O)[O-])c(C)c([N+](=O)[O-])c2)cc1	x	24.4%	0.9%	x
COc1ccccc1OCC(=O)OCC(=O)Nc1ncc(Cl)cc1Cl	2.6%	3.0%	2.2%	4.0
CCn1c(CN2CCCCCC2=O)nnc1SCc1cnc(-c2ccccc2)s1	-7.0%	15.4%	0.1%	15.9
c1coc(CSc2ncnc3c2oc2ccccc23)c1	-39.5%	-3.2%	0.8%	-3.8
CC(Sc1nc2ccccc2c(=O)n1CC1CCCO1)C(=O)NC(C)c1ccccc1 (centres undefined)	x	4.1%	2.4%	x
O=C(c1cc2c(ccc3ccccc32)oc1=O)N1CCN(CCO)CC1	-2.7%	-22.2%	u	-2.0
CCCCOC(=O)CNc1nnc(SCC(=O)OCC)[nH]c1=O	3.7%	11.7%	-1.0%	11.2
C1CCN(c2c3c(nc4nnnn24)CCCC3)CC1	-4.5%	10.7%	0.2%	6.3
Cc1ccccc1N=C1NN=C(c2ccccc2F)CS1	-35.5%	32.0%	3.1%	-29.0
CCN1CCN(S(=O)(=O)c2ccc(Cl)c(C(=O)NCc3nc4ccccc4[nH]3)c2)CC1	x	-0.8%	-0.4%	x
O=C(NS(=O)(=O)Nc1ccc(Cl)cc1)c1c[nH]c2ccccc12	-0.7%	16.8%	1.6%	x
CCN1c2ccccc2-c2nc3ccccc3n2C1c1ccccn1 (centres undefined)	-1.3%	u	u	u
COc1ccc(C(=O)NNC(=O)C(=O)Nc2cccc3ccccc23)cc1	-0.7%	-31.7%	0.5%	x
CCCCNC(=O)c1ccc(CNS(=O)(=O)c2ccc(Br)cc2)cc1	1.7%	17.9%	0.0%	-2.9
Cc1cc(=O)oc2c(CN3CCCC3)c(O)c(Cl)cc12	-2.6%	14.6µM*	u	x
Cc1cccc(NC(=O)c2c([N+](=O)[O-])cnn2C)c1	-1.9%	-10.1%	0.5%	x
CCN(CC)S(=O)(=O)c1ccc(N=NC2=C(O)CC(C)(C)CC2=O)cc1	-2.9%	15.6%	9.0%	-14.5
Nc1cc(N)nc(SCC(=O)NC2CCCCCCC2)n1	x	-3.7%	3.5%	x
O=C(Cc1ccc(F)cc1)Nc1nccs1	-3.6%	10.1%	3.9%	x
CC(C)NC1(C(N)=O)CCNCC1	x	-6.4%	2.0%	x
COCCSc1ccccc1C(=O)N1CCN(Cc2ccc3c(c2)OCO3)CC1	-1.4%	15.3%	1.9%	-6.8
Cc1ccccc1C(=O)NC1CCN(C(=O)N(c2ccccc2)c2ccccc2)CC1	6.2%	-7.6%	0.0%	4.3
CCOC(=O)c1sc(=NC(=O)c2cccc(C)c2)n(C)c1C	-44.7%	10.0%	-2.8%	2.0
CC(=O)c1c(COC(=O)c2ccc(C)cc2)nc2ccccc2[n+]1[O-]	2.7%	-1.1%	-2.1%	1.1
Fc1ccc(-[n+]2nc(Nc3ccccc3)sc2-c2cccc(Cl)c2Cl)cc1	2.8%	32.2%	0.0%	x
CC(CNS(=O)(=O)c1ccc2c(c1)NC(=O)CCS2)c1ccccc1 (centres undefined)	14.7%	27.5%	-0.2%	x
O=C(/C=C/c1ccccc1)NCC(=O)N/N=C/c1cccs1	-17.9%	-14.9%	0.1%	x
COc1cc(C2C(C(=O)c3ccco3)=C(O)C(=O)N2CCc2ccccc2)ccc1O (centres undefined)	-12.4%	-2.7%	3.9%	-18.8
COC(=O)c1cc(C#N)c(N2CCN(C)CC2)nc1C	-9.3%	2.4%	-5.1%	-12.9
O=C(Cc1ccccc1)NN1C(=O)C2C(C1=O)C1C=CC2C12CC2 (centres undefined)	-10.7%	2.9%	-0.5%	3.4
COc1ccc(CCNC(=O)C(=O)NCC2OCCN2S(=O)(=O)c2ccc(OC)c(OC)c2)cc1 (centres undefined)	10.2%	17.7%	-2.4%	x
CCN1CCN(c2ccc(Cl)cc2NC(=O)c2ccco2)CC1	x	-0.1%	0.4%	x

# Later entries:
Molecule	miR-21 FLuc	Rango dissoc inh	Rango complex inh	GLA inh pH 4.5
CN1CCN(C(=O)c2ccc3c(c2)N(Cc2cccc(Cl)c2)C(=O)c2ccccc2S3=O)CC1 (centres undefined)	x	0.6%	4.0%	x
O=C(NCC1CCCO1)c1cc(-c2ccco2)nc2ccccc12 (centres undefined)	-1.6%	-17.0%	u	29.4
COc1cccc2c(=O)n(CC(=O)NC3CCCC3)ccc12	-22.5%	-13.8%	0.2%	3.3
Cc1ccc(C)c(C(=O)COC(=O)c2c(-c3ccccc3)noc2C)c1	x	-8.7%	-0.7%	x
CCCCC(=O)NC1(C(F)(F)F)NC(=O)N(Cc2ccccc2)C1=O (centres undefined)	3.9%	-5.8%	-1.0%	2.0
COc1ccc(/C=C/C(=O)OCC(=O)NCc2ccccc2Cl)cc1OC	x	0.2%	0.9%	x
CC(C)(C)NC(=O)CN1CCC(O)(c2ccc3c(c2)OCO3)CC1	-8.4%	1.0%	2.9%	-0.2
CS(=O)(=O)c1cnc(-c2ccccc2)nc1Oc1ccc(F)cc1	0.8%	0.3%	0.1%	3.0
